# rRNA inh HTS: selective bacterial rRNA inhibition in E. coli. AID 720706. 350,000 tested, 1.6% active. GFP signal change (wild-type ribosome), % (concentration not given with the values). E. coli WT GFP vs humanized-ribosome RFP mutants, fluorescence, 24 h; stronger effect = lower value; DMSO median 0, no signal -100;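 active means significant combined selectivity score with lowered wild-type GFP, culture density cut under 30%, mutant RFP and density less affected; inactive means any of these conditions unmet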; further: one replicate is shown; some compounds called inactive have numbers as strong as hits
# rRNA inh HTS OD600: further read-out of rRNA inh HTS, marked with its call; OD600 change, %; measured here: OD600 growth;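 optical density of the mix in the first replicate; 0 = DMSO median and -100 = no signal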
# rRNA inh HTS RFP: second read-out of rRNA inh HTS, no call of its own (marks repeat the call); RFP signal change, %; measured here: RFP humanized mutant strains;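 first replicate; 0 = DMSO median and -100 = no signal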
# * hit, by the source's call; & = joins results of further samples.
SMILES,rRNA inh HTS,rRNA inh HTS OD600,rRNA inh HTS RFP
Cc1noc(C)c1NC(=O)N(C)C[C@H]1Oc2cc(C#CCC(C)C)ccc2S(=O)(=O)N([C@@H](C)CO)C[C@@H]1C,-4,-10,-0.6
C[C@H]1CN([C@@H](C)CO)C(=O)c2cc(C#Cc3cccnc3)cnc2O[C@H]1CN(C)Cc1ccc(F)cc1,3&1,5&8,7.2&1.3
COc1cccc(S(=O)(=O)N2C[C@H](O)COC[C@H]3O[C@H](CC(=O)N4CCCCC4)CC[C@@H]32)c1,1,3,-2.3
C[C@@H](O)C#Cc1ccc2c(c1)O[C@@H](CN(C)C(=O)CC1CC1)[C@@H](C)CN([C@@H](C)CO)S2(=O)=O,-1,4,-1.0
CC(C)[C@@H]1COCc2cn(nn2)CCCCC(=O)N1,2,1,-2.9
C[C@@H]1CN([C@@H](C)CO)C(=O)c2cc(-c3cccc(F)c3)cnc2O[C@H]1CN(C)Cc1ccccn1,1,8,1.7
CNC[C@H]1OCCCC[C@H](C)Oc2ccc(NS(C)(=O)=O)cc2C(=O)N([C@@H](C)CO)C[C@H]1C,2,8,0.6
O=C(Nc1ccn(CCCNCC(c2ccccc2)c2ccccc2)c(=O)n1)OCc1ccccc1,-63,-82,-21
COc1ccc2c3c(n(C)c2c1)[C@H](CO)N(C(=O)Nc1ccc(F)cc1)CC31CCN(S(=O)(=O)c2cccs2)CC1,-1,8,2.9
CCN1[C@@H]2c3ccc(C4=CCCC4)c(=O)n3C[C@@H]2[C@@H](CO)[C@@H]1C(=O)NCCc1ccccc1,-3,-8,-2.4
Cc1noc(C)c1S(=O)(=O)Nc1ccc2c(c1)C(=O)N([C@H](C)CO)C[C@@H](C)[C@@H](CN(C)C(=O)CCCN(C)C)OCCCC[C@H](C)O2,2,-3,-0.1
CC(=O)Nc1ccc(CN2CCC(N3CCC(C(=O)NC4CC4)CC3)CC2)cc1,4,1,-3.0

# Next part (4 carried over from the part before).
SMILES,rRNA inh HTS,rRNA inh HTS OD600,rRNA inh HTS RFP
COc1ccc2c3c(n(C)c2c1)[C@H](CO)N(C(=O)Nc1ccc(F)cc1)CC31CCN(S(=O)(=O)c2cccs2)CC1,-1,8,2.9
CCN1[C@@H]2c3ccc(C4=CCCC4)c(=O)n3C[C@@H]2[C@@H](CO)[C@@H]1C(=O)NCCc1ccccc1,-3,-8,-2.4
Cc1noc(C)c1S(=O)(=O)Nc1ccc2c(c1)C(=O)N([C@H](C)CO)C[C@@H](C)[C@@H](CN(C)C(=O)CCCN(C)C)OCCCC[C@H](C)O2,2,-3,-0.1
CC(=O)Nc1ccc(CN2CCC(N3CCC(C(=O)NC4CC4)CC3)CC2)cc1,4,1,-3.0
Cc1ccc(C(=O)N(CC(=O)NC2CCCC2)c2ccccc2F)s1,-11,-14,-11
C[C@@H]1CN([C@@H](C)CO)C(=O)c2ccccc2-c2ccccc2CO[C@@H]1CN(C)S(=O)(=O)c1ccccc1F,-3,-3,1.4
O=C([C@H]1[C@H](CO)[C@H]2Cn3c(ccc(-c4cccnc4)c3=O)[C@@H]1N2CCC(F)(F)F)N1CCCCC1,1,4,-1.0
CCC(=O)Nc1ccc2c(c1)C(=O)N(C)C[C@@H](OC)[C@@H](C)CN(C(=O)COC)[C@H](C)CO2,1,12,-0.8
CCCN1C[C@H](C)[C@H](OC)CN(C)C(=O)c2ccc(NC(=O)c3cccc(OC)c3)cc2OC[C@@H]1C,1,0,-3.3
CS(=O)(=O)N1CCCCN2[C@H](CO)[C@H](c3ccc(C4=CCCC4)cc3)[C@@H]2C1,5,7,-0.7
CCS(=O)(=O)N1CC(=O)N2[C@@H](CO)[C@H](c3ccc(C#Cc4ccc(F)cc4)cc3)[C@@H]2C1,3,8,1.1
COc1cccc(CNC(=O)C[C@@H]2CC[C@@H]3[C@@H](COc4ccc(NS(=O)(=O)c5ccccc5F)cc4C(=O)N3C)O2)c1,3,-8,-0.9
CN1C(=O)c2cc(NC(=O)c3ccc(F)cc3)ccc2OC[C@@H]2O[C@@H](CC(=O)O)CC[C@H]21,1,8,-0.7
O=C(C[C@H]1CC[C@H](NC(=O)c2ccncc2)[C@H](CO)O1)NCC1CCCCC1,1,2,-1.7
CCC(=O)N(C)C[C@H]1Oc2ncc(C#CCc3ccccc3)cc2C(=O)N([C@@H](C)CO)C[C@@H]1C,1,-2,0.7
COC(=O)C1=C(C)NC(=S)NC1c1ccc(Br)cc1 (stereo unspecified),-9,-7,-1.3
COc1ccc(NC(=O)N(C)C[C@H]2OCCCC[C@H](C)Oc3ccc(NS(C)(=O)=O)cc3C(=O)N([C@@H](C)CO)C[C@H]2C)cc1,2,5,2.9
Cc1noc(C)c1NC(=O)N(C)C[C@@H]1Oc2c(NC(=O)NC3CCCCC3)cccc2C(=O)N([C@@H](C)CO)C[C@@H]1C,3,8,1.8
C[C@@H]1CC=CC[C@H](c2cccc(Cl)c2)NC(=O)[C@@H](Cc2ccccc2)N(C)C(=O)c2ccccc2O1 (mixture of isomers),1,3,1.6
CCCN1[C@@H]2c3ccc(-c4ccccc4)c(=O)n3C[C@@H]2[C@@H](CO)[C@@H]1C(=O)N[C@H](C)c1ccccc1,-9,-27,18
Cc1cccc(-c2ccc([C@H]3[C@@H](CO)N4CCCCN(C(=O)c5ccc6c(c5)OCO6)C[C@H]34)cc2)c1,-59,-75,-11
C[C@@H]1CN([C@@H](C)CO)C(=O)Cc2cc(NS(=O)(=O)c3cn(C)cn3)ccc2O[C@@H]1CN(C)C(=O)NC1CCCCC1,1,4,-2.2
Cc1ccccc1S(=O)(=O)N1CCCCN2[C@H](C1)[C@H](c1ccc(C#CCN(C)C)cc1)[C@@H]2CO,-8,-14,-3.4
C[C@@H]1CN([C@H](C)CO)C(=O)c2cc(C#CC3CC3)cnc2O[C@H]1CN(C)C(=O)C1CCCCC1,2,-1,-2.6
C[C@H]1CN([C@@H](C)CO)C(=O)c2cc(-c3ccc(C#N)cc3)cnc2O[C@@H]1CN(C)C(=O)CC1CC1,-1,3,-4.4
C[C@@H]1CN([C@@H](C)CO)S(=O)(=O)c2ccc(-c3cncnc3)cc2O[C@@H]1CN(C)C(=O)Cc1ccccc1,4,-7,-2.9
CC1(C(=O)NS(=O)(=O)C2CC2)CCN(C(=O)c2ccccc2OC(F)(F)F)C1 (stereo unspecified),12,22,-0.5
Cc1ccccc1OCC(=O)OCC(=O)NC1CCCC1,0,11,-4.3

# Quoted at random: 4 entries already listed
SMILES,rRNA inh HTS,rRNA inh HTS OD600,rRNA inh HTS RFP
Cc1cccc(-c2ccc([C@H]3[C@@H](CO)N4CCCCN(C(=O)c5ccc6c(c5)OCO6)C[C@H]34)cc2)c1,-59,-75,-11
C[C@@H]1CN([C@H](C)CO)C(=O)c2cc(C#CC3CC3)cnc2O[C@H]1CN(C)C(=O)C1CCCCC1,2,-1,-2.6
Cc1ccccc1S(=O)(=O)N1CCCCN2[C@H](C1)[C@H](c1ccc(C#CCN(C)C)cc1)[C@@H]2CO,-8,-14,-3.4
C[C@@H]1CN([C@@H](C)CO)C(=O)Cc2cc(NS(=O)(=O)c3cn(C)cn3)ccc2O[C@@H]1CN(C)C(=O)NC1CCCCC1,1,4,-2.2

# (further entries)
SMILES,rRNA inh HTS,rRNA inh HTS OD600,rRNA inh HTS RFP
C[C@@H]1CN([C@H](C)CO)C(=O)c2cccc(NS(=O)(=O)c3cccs3)c2O[C@@H]1CN(C)S(=O)(=O)c1ccc(Cl)cc1,-4,-12,-0.4
CS(=O)(=O)Nc1ccc2c(c1)[C@@H]1C[C@H](CC(=O)N3CCCCC3)O[C@H](CO)[C@@H]1O2,3,6,0.9
CCCNC(=O)C1(C)CCCN(C(=O)c2c(C)noc2C)C1 (stereo unspecified),5,14,0.3
Cc1ccc(S(=O)(=O)Nc2ccc3c(c2)C(=O)N([C@H](C)CO)C[C@@H](C)[C@H](CN(C)C)O3)cc1,3,4,0.4
CN1C(=O)c2cc(NC(=O)NC3CCCC3)ccc2OC[C@H]2O[C@@H](CC(=O)NCC3CC3)CC[C@@H]21,1,10,1.1
O=C1CCC2(CCCC2)c2ccccc21,14,10,12
CCCC(=O)Nc1ccc2c(c1)C(=O)N(C)C[C@@H](OC)[C@@H](C)CN(Cc1ccc(-c3ccccn3)cc1)[C@H](C)CO2,-4,-7,5.0
C[C@H](CO)N1C[C@H](C)[C@@H](CN(C)Cc2ccncc2)Oc2ccc(NS(=O)(=O)c3ccc(F)cc3)cc2C1=O,-5,1,0.3
C[C@@H]1CCCCO[C@H](CN(C)C(=O)C2CCCCC2)[C@@H](C)CN([C@H](C)CO)C(=O)c2cc(NC(=O)c3ccccc3)ccc2O1,-1,-3,0.1
C[C@H](CO)N1C[C@H](C)[C@@H](CN(C)C(=O)NC2CCCCC2)Oc2ccc(NC(=O)c3ccncc3)cc2CC1=O,3,-2,-1.0
O=C(Nc1ccc(F)cc1)C(c1cccc(F)c1)N1CCN(c2ccncc2)CC1 (stereo unspecified),9,-3,-0.1
Cc1cc(C(=O)Nc2ccc3c(c2)C(=O)N(C)[C@@H]2CC[C@@H](CC(=O)N[C@@H](C)c4ccccc4)O[C@H]2CO3)no1,-1,4,-0.7
COc1ccc(-c2cc(NC(=O)Cc3c[nH]c4ccccc34)ccc2Nc2cccnc2)c(OC)c1,-10,-7,8.8
Cc1noc(C)c1S(=O)(=O)N(C)C[C@@H]1Oc2ccc(NC(=O)CCC(F)(F)F)cc2CC(=O)N([C@H](C)CO)C[C@H]1C,-1,4,-1.7
CNC[C@@H]1Oc2c(NC(=O)Nc3c(C)noc3C)cccc2C(=O)N([C@H](C)CO)C[C@H]1C,3,9,0.3
C[C@@H]1CN([C@H](C)CO)C(=O)Cc2cc(NS(=O)(=O)c3cn(C)cn3)ccc2O[C@@H]1CN(C)Cc1ccccc1,3,7,-1.2
CNC[C@H]1OCc2cn(nn2)CCCC(=O)N([C@@H](C)CO)C[C@@H]1C,3,5,0.1
CC(C)NC(=O)Nc1ccc2c(c1)C(=O)N([C@@H](C)CO)C[C@H](C)[C@@H](CN(C)S(=O)(=O)c1ccc(Cl)cc1)O2,-4,4,-1.9
CN1CCN(C(=O)C[C@H]2C[C@@H]3c4cc(NS(=O)(=O)c5ccc(F)cc5)ccc4O[C@@H]3[C@H](CO)O2)CC1,0,3,-1.4
CN(C)C(=O)[C@@H]1[C@@H](CO)[C@@H]2Cn3c(cccc3=O)[C@@H]2N1C(=O)C1CCCC1,2,2,0.3
CO[C@H](CN(C)S(=O)(=O)c1ccc(C)cc1)[C@@H](C)CN([C@@H](C)CO)S(=O)(=O)c1cccc(Cl)c1,-9,-34,0.8
O=C(C1CCOCC1)N1CC(=O)N2[C@@H](CO)[C@@H](c3ccc(C#CC4CCCCC4)cc3)[C@@H]2C1,1,7,-0.3
COc1ccc(S(=O)(=O)Nc2ccc3c(c2)CC(=O)N([C@@H](C)CO)C[C@H](C)[C@H](CN(C)C(=O)Nc2cccc4ccccc24)O3)cc1,-4,-3,1.3
CCC(=O)Nc1ccc2c(c1)C(=O)N(C)[C@@H]1CC[C@H](CC(=O)NCCN3CCCCC3)O[C@H]1CO2,3,3,-0.1
O=C(Cn1ccc(=O)[nH]c1=O)Nc1nccs1,16,14,-0.2
CN(C)C(=O)c1cccc(-c2ccc([C@@H]3[C@H](CO)N4CCCCN(S(C)(=O)=O)C[C@@H]34)cc2)c1,-1,7,0.8
C[C@H]1CN([C@@H](C)CO)C(=O)Cc2cc(NC(=O)NC3CCCCC3)ccc2O[C@@H]1CN(C)Cc1ccncc1,-1,-3,-1.1
CC(C)NC(=O)Nc1ccc2c(c1)C(=O)N([C@@H](C)CO)C[C@H](C)[C@@H](CN(C)S(=O)(=O)c1cn(C)cn1)OCCCC[C@@H](C)O2,6,12,0.0
CC(C)NC(=O)N1CCCCN2[C@H](CO)[C@H](c3ccc(C#CC4CC4)cc3)[C@H]2C1,-1,-2,-2.3
COc1ccc2c3c([nH]c2c1)[C@H](CO)N(C(=O)C1CCCCC1)CC31CN(S(C)(=O)=O)C1,-2,6,1.5
COc1ccc(NC(=O)N(C)C[C@H]2Oc3ccc(NS(=O)(=O)c4ccc(OC)cc4)cc3CC(=O)N([C@H](C)CO)C[C@H]2C)cc1,2,4,0.8
Cc1ccc(S(=O)(=O)N(C)C[C@@H]2Oc3ncc(C#Cc4ccc(C(F)(F)F)cc4)cc3C(=O)N([C@H](C)CO)C[C@@H]2C)cc1,0,-2,1.7
COC(=O)C[C@H]1CC[C@H]2[C@H](COc3ccc(NS(=O)(=O)c4ccccc4F)cc3C(=O)N2C)O1,0,0,-0.3
C[C@@H]1CCCCO[C@@H](CN(C)Cc2ccc3c(c2)OCO3)[C@@H](C)CN([C@@H](C)CO)C(=O)c2cc(NC(=O)c3ccncc3)ccc2O1,4,7,1.1
O=C(C[C@H]1CC[C@@H]2[C@H](COC[C@H](O)CN2C(=O)Nc2ccc(C(F)(F)F)cc2)O1)NC1Cc2ccccc2C1,-58,-79,-20
C[C@@H]1CN([C@@H](C)CO)C(=O)c2cccc(NC(=O)Nc3ccccc3)c2O[C@H]1CN(C)Cc1ccc(C(F)(F)F)cc1,-4,-6,-1.0
N#Cc1csc(CCNC(=O)c2ccccc2)n1,2,13,-1.6
CO[C@H]1CN(C)C(=O)c2cc(NC(=O)Nc3cc(F)ccc3F)ccc2OC[C@H](C)NC[C@@H]1C,-1,2,1.0
C[C@@H](NC(=O)C[C@H]1CC[C@H]2[C@@H](COC[C@@H](O)CN2Cc2cc(F)ccc2F)O1)c1ccccc1,-6,-17,-0.8
N#C[C@@H]1[C@@H](c2ccc(C#CC3CCCC3)cc2)[C@@H](CO)N1C(=O)c1cccc(F)c1,-1,-37,26

# An excerpt; rates above refer to the full screens.
